KSHV LANA nucl = LANA-nucleosome interaction inhibition. 51,000 compounds, 0.3% hits. AID 720717. z-score (no concentration beside the values). FITC-LANA1-23 / chicken nucleosome fluorescence polarization; hits give low values;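 active means both repeat wells score below -2 in polarization z-score versus plate sample wells, excluding overly bright wells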;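 further: 100 nL library stock added to about 30 µL; numbers are from one replicate; some results filed as inactive read as strong as hits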
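test system = FITC-LANA peptide and chicken nucleosomes | amount = 240 nM purified chicken nucleosomes (480 nM peptide binding sites), final | reagent = 50 nM FITC-LANA1-23 probe | medium = TEN-BT buffer, pH 7.5 | doses = single compound addition by pin transfer, 100 nL per well | timing = 10–45 min, room temperature | detection = fluorescence polarization | repeats = duplicate plates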
Ab BasE inh = blocks the Acinetobacter baumannii siderophore enzyme BasE. 84,000 compounds, 0.1% hits. inhibition, % (no concentration beside the values). AID 485350. purified BasE, fluorescence polarization binding displacement;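 active means both replicates above 25% with normal brightness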;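 further: 0% = negative plate control signal and 100% = positive plate control signal; stock transfer was 100 nL into about 30 µL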
* hit, by the source's call; x = no result given. This is a subset; count on the stated rates, not on these rows.

SMILES,KSHV LANA nucl,Ab BasE inh
OCCN1CN=C(Nc2nc3ccccc3o2)NC1,x,-0.8
Cc1cc2ccccc2n1CCCN,0.45,-3.8
Cc1ccc2nc(-c3ccc(NC(=O)CC4SC(=NCc5ccco5)NC4=O)cc3)sc2c1 (configuration not stated),x,1.7
O=C(c1ccco1)N1CCN(C(=O)c2cc3cc(Br)cc(Br)c3oc2=O)CC1,-0.14,-1.0
CCC(=O)Nc1ccc2c(c1)nc1n2CCN(C2CCCCC2)C1,-1.1,2.0
CCCCCc1ccc(-c2nc(CCCC)no2)cc1,-0.37,4.7
Cc1cc(-n2c(=O)[nH]c(=O)n(C)c2=O)ccc1Oc1ccc(SC(F)(F)F)cc1,-0.2,x
Cc1ccc(S(=O)(=O)NCCN2CCOCC2)cc1-c1nnc2c3ccccc3c(C)nn12,-1.2,1.2
Cc1ccc2c(c1)c(-c1ccccc1)c(-c1ccccc1)n2CC(O)Cn1c(C)cc(C)nc1=O (configuration not stated),x,1.0
CC(C)n1ncc2c(C(=O)NCC3COc4ccccc4O3)cc(C3CC3)nc21 (configuration not stated),x,1.3
O=S(=O)(NCCCO)c1ccc2c(c1)Cc1cc(S(=O)(=O)NCCCO)ccc1-2,-1,0.7
Cn1c2c(c(=O)n(C)c1=O)CN(Cc1ccccc1)CN2,-0.28,0.8
CCN(CC)C(=O)c1ccc(I)cc1,0.68,-0.1
CN1CC(C(=O)N2CCN(c3ccccc3F)CC2)c2ccccc2C1=O (configuration not stated),-0.08,2.3
CCOC(=O)C1=C(C)N(c2ccccc2)C(=O)C1CC(=O)O (configuration not stated),0.35,-1.8
OCc1ccc(OCc2cnc(Cl)s2)cc1,0.31,x
CC(C)(O)/C(=C\C#N)n1c(=O)oc2ccccc21,0.26,-2.0
CN1CCCN(Cc2cc(Br)cs2)CC1,0.03,-1.2
COc1cccc(C(=O)COc2cccc(NC(=O)c3ccco3)c2)c1,1.1,1.3
CC(C)C(NC(=O)Cn1c(=O)oc2ccccc21)c1nc2ccccc2[nH]1 (configuration not stated),x,-5.2
O=C1CC(=O)N2N=C(c3ccccc3)SC2=N1,-0.29,-0.2
O=C1C(=C2SCCS2)CC/C1=C\c1ccccc1,x,2.8
NC(=S)/N=C1\CCCCC1=C1CCCCC1,x,1.6
CCC1S/C(=N\C(=O)Nc2ccc(Cl)c(Cl)c2)NC1=O (configuration not stated),1.3,-2.7
Cn1nc(NC(=O)CC(C)(C)CC(=O)O)c2c(F)cccc21,x,0.9

In the list so far, these contain bromine:
SMILES,KSHV LANA nucl,Ab BasE inh
O=C(c1ccco1)N1CCN(C(=O)c2cc3cc(Br)cc(Br)c3oc2=O)CC1,-0.14,-1.0
CN1CCCN(Cc2cc(Br)cs2)CC1,0.03,-1.2

New compounds follow
SMILES,KSHV LANA nucl,Ab BasE inh
COCCn1c(SC(C)C(N)=O)nc2ccccc21 (configuration not stated),x,2.3
COc1cc(OC)c(C(=O)OCC#N)cc1OC,x,-1.1
O=C(/C=C/c1ccc(OC(F)F)cc1)Oc1ccc(-n2cnnn2)cc1,x,-1.1
COc1ccccc1NC(=O)c1noc2ncn(C)c(=O)c12,-0.91,1.6
CCN(CC)C(=O)c1ccccc1-c1ccccc1C(=O)O,-0.28,-1.1
CC(C)CCNC(=O)C1CCN(Cc2ccccc2O)CC1,-0.53,-1.9
Cc1cc(C)cc(NC(=O)Cn2cnc3c2c(=O)n(C)c(=O)n3C)c1,0.19,-2.4
CCc1ccc2[nH]c(=O)c(C(c3nnnn3C3CCCC3)N(C)Cc3ccccc3)cc2c1 (configuration not stated),-1.3,0.5
CCCCCCc1c(C)c2ccc(OC(C)C(=O)O)c(C)c2oc1=O (configuration not stated),0.039,-1.7
CC(C)(C)NC(=O)NCC1COC2(CCCCC2)O1 (configuration not stated),-0.43,0.5
Cc1ccc(C)n1-c1ccsc1C(=O)NN,-0.18,-1.2
COc1cccc(NC(=S)Nc2ccc3nc4n(c(=O)c3c2)CCCCC4)c1,-1.3,-0.5
COCCNC(=O)c1cc2sc3ccccc3c2s1,1.9,-7.9
Nc1ccc(C(=O)N2CCCC2)cc1,0.83,0.2
CC(C)c1ccc(OCC(=O)N2CCCc3ccccc32)cc1,0.081,1.5
CCn1c(C)nc2cc(S(=O)(=O)N(C)C)ccc21,-0.66,1.9
Cc1ccc(C(=O)OCc2ccccc2)cc1NC(=O)c1ccco1,1.2,-1.4
O=c1c2ccccc2n2c(=S)[nH]nc2n1Cc1ccccc1,x,1.8
O=C(Cn1cnc2ccccc2c1=O)NCCC(=O)N1CCN(Cc2ccccc2)CC1,0.7,2.2
Cc1ccnc2nc(C(=O)Nc3ccccc3C(C)(C)C)nn12,x,-1.3
Brc1ccc2c(c1)CNc1cccnc1O2,1.6,-0.8
CC(O)(CC#N)c1ccccc1 (configuration not stated),1.1,-5.2
CCOC(=O)c1oc2ccccc2c1NC(=O)COC(=O)C12CCC(=O)N1c1ccccc1S2 (configuration not stated),x,-1.7
Cc1ccc2nc(COC(=O)Cn3[nH]c(=O)c4ccccc4c3=O)cc(=O)n2c1,x,1.8
CC(C)=N/N=C(\N)SCc1ccccc1,x,0.4

Further structures:
SMILES,KSHV LANA nucl,Ab BasE inh
Nn1c(Cc2ccccc2)n[nH]c1=S,-0.011,0.5
CCCN1C(=O)C(NC(C)=O)c2cc(C)ccc21 (configuration not stated),-0.19,0.7
O=C(NCCC1=CCCCC1)Nc1noc2c1COc1ccccc1-2,-0.5,1.2
COc1ccc(C2CC(=O)C(C=NC3CCCC3)=C(O)C2)cc1 (configuration not stated),0.21,0.6
CN(C)c1ccc(Nc2nc3ccccc3nc2NS(=O)(=O)c2cccs2)cc1,x,1.0
CCN(CC)S(=O)(=O)c1ccc(N2C(=O)Nc3ccccc3N2O)cc1,-0.23,0.0
Fc1ccc(-c2cn3cccc(OCc4ccc(Cl)c(Cl)c4)c3n2)cc1,x,-3.4
Cc1ccc(C(=O)OCc2ccc(C#N)cc2)c(O)c1,x,0.8
Cc1cc(C)nc(N2CCC(C(O)(c3ccccc3)c3ccccc3)CC2)n1,0.36,-2.9
c1ccc(-c2nsc(NC3Cc4ccccc4C3)n2)cc1,x,1.6
COCCN1C(=O)c2ccccc2C(C(=O)N2CCN(c3ccccc3)CC2)C1c1c[nH]c2ccccc12 (configuration not stated),0.6,3.8
CC(NC(=O)c1cc(=O)[nH]c2ccc(S(=O)(=O)N3CCOCC3)cc12)C12CC3CC(CC(C3)C1)C2 (configuration not stated),x,2.1
S=c1oc(COc2ccccc2Cl)nn1CN1CCOCC1,x,-1.6
CCCn1c(=O)n(C)c(=O)c2c3oc(=O)c(NC(=O)c4ccccc4)cc3[nH]c21,x,-4.0
Cc1ccc(N2CC(C(=O)Nc3nnc(SCC(=O)NCc4ccco4)s3)CC2=O)cc1C (configuration not stated),0.15,0.7
Cc1noc(C)c1NC(=O)NC1Cc2ccccc2C1,0.002,-1.8
O=C(CCn1ccc2cc(S(=O)(=O)N3CCCCC3)ccc21)N1CCc2ccccc2C1,x,1.1
COc1ccc(N=Cc2cn(-c3ccccc3)nc2-c2ccccc2)cc1,x,1.4
COc1ccccc1NC(=O)C(CC(C)C)NC(=O)C1CCCCC1 (configuration not stated),-0.53,3.4
CC(=O)Nc1ccc(S(=O)(=O)Nc2cc(C)c(-n3nc4ccccc4n3)cc2O)cc1,1.5,-5.5
Cc1ccc(NC(=O)CC(=O)Nc2ccc(C)cc2C)c(C)c1,0.35,x
O=C(NCCc1ccccc1)c1c(O)nc2ccccn2c1=O,-0.53,-2.0
CN1C(=O)/C(=C2/C=CC=CN2C)SC1=S,-0.17,7.2
Cc1cccc(C)c1NC(=O)CCCSc1nnnn1C,x,1.5
CN(C)S(=O)(=O)c1ccc(N2CCCC2)c(C(=O)OCc2ncc(-c3ccccc3)o2)c1,x,1.7

(next part)
SMILES,KSHV LANA nucl,Ab BasE inh
CCOC(=O)c1c(F)c(F)c(S(C)(=O)=O)c(F)c1F,x,1.1
O=C(CSCc1ccco1)Nc1ccc(Br)cc1,-0.67,0.2
Cc1cc(N)n2c(nc3ccccc32)c1C#N,x,1.3
Nc1c(C(=O)c2cccs2)oc2nc(-c3cccs3)cc(-c3ccco3)c12,-8.6,9.0
CCN(C(=O)Cn1cnc(S(=O)(=O)N2CCOCC2)c1)c1cccc(C)c1,0.88,0.1
Cc1cccc2c1[nH]c1nc(=S)[nH]nc12,0.41,3.2
CC1(C)Oc2ccc(/C=C/C(=O)N3CCCCC3)c(O)c2C(N2CCCCC2)C1O (configuration not stated),0.69,-1.2
CC(NCc1cccc(S(=O)(=O)N(C)C)c1)c1ccc(F)cc1 (configuration not stated),x,-0.9
COc1cccc(NC(=O)c2ccc(OC)c(OC)c2)c1,x,1.4
O=C1CCCN1c1ncccn1,2.2,x
CCc1ccc(NC(=O)c2cc(=O)n3c(nc4ccccc43)s2)cc1,-0.084,-0.4
CCNC(=O)N(Cc1ccc(Cl)cc1)Cc1cccnc1,-1.1,3.6
O=c1ccc2c(c1)oc1c(-c3ccccc3)c3ccccc3[nH]c12,x,-3.6
Cc1ccc(C(=O)CSc2nc3ccccc3c(=O)n2N)o1,-1.1,1.3
CCCC(=O)Oc1ccc(N(C(=O)CCC)S(=O)(=O)c2ccccc2)cc1,x,-4.6
CCn1c(O)c(/C=C/c2nc3ccccc3n2CC)sc1=S,0.15,-0.7
N#Cc1cn(C2CCCCC2)c(=O)[nH]c1=O,x,-0.1
CNC(=O)CSc1nncn1-c1ccccc1,x,-1.5
CN(Cc1cnn(-c2ccccc2)c1)C(=O)C1CCN(c2ccc(-c3cccs3)nn2)CC1,-0.48,0.3
CCN=c1sc(C2=c3ccccc3=NC2=O)c(O)n1CC,0.5,-0.7
Cc1ccc(CN2N=NC3C(=O)NC(=O)C32)cc1 (configuration not stated),0.14,0.6
O=C(COc1ccc(Cl)cc1Cl)NC1CCS(=O)(=O)C1 (configuration not stated),x,1.8
Cc1ccnc(NC(=O)CCC(=O)O)c1,-0.4,1.2
O=C(/C=C/c1ccco1)Nc1ccc(N2CCOCC2)cc1,x,-1.0
CC(C)(C)c1ccc(Cn2c(=N)n(CC(O)c3ccco3)c3ccccc32)cc1 (configuration not stated),0.41,-0.8

Next part.
SMILES,KSHV LANA nucl,Ab BasE inh
O=C(Nc1ccc(C(=O)N2CCCc3ccccc32)cc1)c1ccco1,-0.48,1.4
Cc1c(C(=O)NCCN2CCOCC2)sc2nc(-c3ccc(F)cc3)cn12,-0.15,0.5
N#CC(C#N)Cc1ccccc1F,1.4,x
O=C(COc1ccc(OCc2ccccc2)cc1)NC1CCOC1=O (configuration not stated),x,0.8
COc1ccc(C(CC(=O)NCc2cccnc2)N2Cc3ccccc3C2=O)cc1 (configuration not stated),0.92,0.3
CNc1ccc2cccc(Oc3ccc4cccc(O)c4n3)c2n1,x,3.0
COc1ccc(CCNC(=O)COc2cccc3c2CCN(Cc2cccnc2)C3=O)cc1OC,-1.1,-0.3
O=C(Oc1ccc2c(c1)OCO2)N1CCOCC1,0.59,-0.5
CC1CC(=O)c2cnc(N3CC(C)CC(C)C3)nc2C1 (configuration not stated),-0.64,5.3
COC(=O)c1ccccc1-c1ccc(-c2nc3sc4c(c3c(=O)[nH]2)CCCC4)o1,0.25,-0.7
CCCCCCCCCCCCCCCCOCC(CO)OC (configuration not stated),-0.15,-1.4
N#Cc1c(N)cc(N)nc1SCc1ccc(Cl)c(Cl)c1,x,1.8
CN(C)/C=N/c1ncnc2c1cnn2-c1ccccc1,x,1.3
CCOC(=O)C1CCN(S(=O)(=O)c2ccc(-c3cc(C(F)(F)F)no3)s2)CC1,x,-0.4
Cc1cccc(N(CC(N)=O)C2SC(=O)NC2=O)c1 (configuration not stated),x,-3.6
O=C(NCCc1ccncc1)Nc1c[nH]c2ccccc2c1=O,-0.15,-0.9
CCOc1ccc(-c2n[nH]c(=S)c3ccccc23)cc1,x,1.5
Cc1ccccc1Nc1nc(N)nc(COC(=O)C23CC4CC(CC(O)(C4)C2)C3)n1,x,2.9
O=c1[nH]cc(N2CCCCCC2)c(=O)[nH]1,0.97,x
CC(=O)Nc1ccc(NC(=O)CS(=O)(=O)Cc2ccccc2)cc1,-0.4,-2.1
Cc1nc(C(F)(F)F)nc(Sc2cccc(C(F)(F)F)c2)c1C,x,1.9
CCCCN1C(=O)c2ccc(C(=O)OCC(=O)N3CCN(c4ccccc4)CC3)cc2C1=O,x,1.6
COc1cc(C(=O)NN)ccc1-c1ccc(C(=O)NN)cc1,-0.36,3.6

Some of the entries above, reformatted:
The line under a structure holds: KSHV LANA nucl	Ab BasE inh
CN(C)/C=N/c1ncnc2c1cnn2-c1ccccc1
    x	1.3
CC(=O)Nc1ccc(NC(=O)CS(=O)(=O)Cc2ccccc2)cc1
    -0.4	-2.1
